Sa helicase inh: S. aureus DNA helicase inhibition | purified S. aureus helicase, fluorescence unwinding assay; about half of the hits fall short of the stated cut | inhibition, %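 (tested at about 80 µM)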 | actives 0.05% (n = 120,000) | AID 485395;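 active = both duplicates at 50% or more, or one of them with a favoured structure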;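 also: 0% = mean of negative control wells and 100% = mean of positive control wells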
MgrA DNA FP: modulators of Staphylococcus aureus MgrA DNA binding | fluorescence polarization | inhibition, %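 (about 10 µg/mL by stock and volumes)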 | actives 0.13% (n = 84,000);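 active = above 50% in either of two replicates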;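 also: 0% = protein plus DNA without compound and 100% = DNA alone without protein; higher means less MgrA bound to DNA so lower polarization; one replicate is shown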
Numbers without * were called inactive; . = not tested or not shown.

| nr | mol | Sa helicase inh | MgrA DNA FP |
| --- | --- | --- | --- |
| 1 | CCCCn1c(-c2cccc(Br)c2)nc2ccccc21 | 6 | . |
| 2 | CN1CCN(c2ccccc2NS(=O)(=O)c2ccc3c(c2)SCC(=O)N3)CC1 | 3 | 0.1 |
| 3 | O=C(NCCCO)c1cc2sc3ccccc3c2s1 | -2 | -0.4 |
| 4 | CCc1ccc(NC(=O)c2nn(-c3ccc(C)cc3)c(=O)c3c2c2ccccc2n3C)cc1 | 8 | 0.5 |
| 5 | CCOc1ccc(NC(=O)c2ccc3c(c2)S(=O)(=O)N=C2CCCCCN23)cc1 | -13 | . |
| 6 | O=C(Nc1ncn[nH]1)c1cccc(Br)c1 | 10 | -0.7 |
| 7 | CC(NC(=O)c1ccc(F)cc1)C(c1cccs1)N1CCN(C)CC1 (centres undefined) | 12 | -0.9 |
| 8 | Fc1cccc(-c2cc3nc4c(c(NCCCN5CCOCC5)n3n2)CCCC4)c1 | 11 | -0.9 |
| 9 | CCC1Sc2cc(S(=O)(=O)CCC(=O)N3CCCCC3)ccc2NC1=O (centres undefined) | 13 | -3.0 |
| 10 | CCCCc1c(O)nc(SCC(=O)N2CCCCC2)[nH]c1=O | 4 | 1.4 |
| 11 | CC1=C(C(=O)OC2CCCCC2)C(c2ccc(OCc3ccccc3)cc2)NC(=O)N1 (centres undefined) | . | -1.6 |
| 12 | O=S1(=O)N=CNc2ccc(S(=O)(=O)Nc3ccccc3)cc21 | 1 | . |

Among those listed so far, these have nitrogen in an aromatic ring:
| nr | mol | Sa helicase inh | MgrA DNA FP |
| --- | --- | --- | --- |
| 1 | CCCCn1c(-c2cccc(Br)c2)nc2ccccc21 | 6 | . |
| 4 | CCc1ccc(NC(=O)c2nn(-c3ccc(C)cc3)c(=O)c3c2c2ccccc2n3C)cc1 | 8 | 0.5 |
| 6 | O=C(Nc1ncn[nH]1)c1cccc(Br)c1 | 10 | -0.7 |
| 8 | Fc1cccc(-c2cc3nc4c(c(NCCCN5CCOCC5)n3n2)CCCC4)c1 | 11 | -0.9 |
| 10 | CCCCc1c(O)nc(SCC(=O)N2CCCCC2)[nH]c1=O | 4 | 1.4 |

Assay outcomes (PubChem)

Some of the compounds tested; count on the stated rates, not on these rows.
